VDR inhibitor: inhibitors of human vitamin D receptor. P11473. VDR-SRC2-3 peptide fluorescence polarization, 2 h. Potency, µM, for the others: max response, negative = inhibition, usual class: inhibitors. 400,000 compounds, 0.93% hits; active means well fitted inhibition curve with a large enough effect; inconclusive means small, poorly fitted or top-dose-only effect, or another doubt; inactive means no such curve, though single readings can be large or run the other way; further: series mostly up to about 120 µM
Target sequence (P11473 whole entry, looked up): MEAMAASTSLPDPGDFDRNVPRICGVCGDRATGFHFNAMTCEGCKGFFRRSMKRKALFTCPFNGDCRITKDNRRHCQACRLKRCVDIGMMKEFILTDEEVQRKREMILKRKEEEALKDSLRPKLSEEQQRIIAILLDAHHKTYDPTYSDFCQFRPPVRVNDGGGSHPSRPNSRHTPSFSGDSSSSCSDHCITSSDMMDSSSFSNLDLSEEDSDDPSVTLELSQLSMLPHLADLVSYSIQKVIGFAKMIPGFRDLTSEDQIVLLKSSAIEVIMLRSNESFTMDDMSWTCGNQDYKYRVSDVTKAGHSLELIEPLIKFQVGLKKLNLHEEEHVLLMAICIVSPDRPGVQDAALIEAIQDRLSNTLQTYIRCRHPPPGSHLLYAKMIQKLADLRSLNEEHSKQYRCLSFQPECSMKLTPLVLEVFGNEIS
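Compounds are added to VDR with labelled SRC2-3 coactivator peptide and held 2 h at room temperature. Inhibition of the VDR–peptide interaction is then read as a change in fluorescence polarization.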
* = called active by the depositor. On the % scale 0 is the no-effect control and ±100 the full control effect; potency means the concentration at half of the fitted maximal effect. An excerpt, so the mix of outcomes need not match the whole.

`O=C(NCc1ccco1)C12CN(Cc3ccccc3)CC1C(c1cccc([N+](=O)[O-])c1)=NO2` (stereo not drawn) gave VDR inhibitor -18%.
Screening COc1cccc(-n2cnc3sc(C)c(C)c3c2=O)c1 returned VDR inhibitor -2%.
`Cc1ccc(N2CC(=O)Nc3c(oc4nc(-c5ccccc5)cc(C)c34)C2=O)cc1` gave VDR inhibitor 9%.
Screening CCCOC(=O)c1ccc(Cn2nnc3sc4c(c3c2=O)CCC(C)C4)cc1 (stereo not drawn) returned VDR inhibitor 4%.
`CCOC(=O)C1=C(C)Nc2nc(SCc3cccnc3)nn2C1c1ccc(OC)cc1` (stereo not drawn) gave VDR inhibitor -17%.
`O=C(CSc1nnc(-c2ccccc2)o1)NCC1CCCCC1` gave VDR inhibitor -16%.
Screening Cn1c(=O)c2c(SCC(=O)Nc3cccc(F)c3)nc(-c3ccco3)nc2n(C)c1=O returned VDR inhibitor -9%.
`CC(CCc1ccccc1)NC(=O)CN1CCOc2ccccc21` (stereo not drawn) gave VDR inhibitor 10%.
`CN(C)CCNc1ccc(Cl)cc1[N+](=O)[O-]` gave VDR inhibitor -13%.
Screening N=C1C(c2ccccc2)=C(O)CN1c1cccc(S(N)(=O)=O)c1 returned VDR inhibitor -20%.
Screening Cc1ccccc1-c1ccc2ncnc(N(C)C)c2c1 returned VDR inhibitor -5%.
For CC(=O)c1cc(C(c2csc(C(C)=O)c2)c2csc(C(C)=O)c2)cs1 the results were VDR inhibitor -12%.
Screening O=C(CCc1nc(-c2ccccc2F)no1)Nc1ccc(Oc2ccccc2)cc1 returned VDR inhibitor -9%.
Screening N#Cc1ccc(NC(=O)Cn2cnc(S(=O)(=O)N3CCc4ccccc43)c2)cc1 returned VDR inhibitor 15%.
For NC(=O)Cc1nc(-c2ccccc2)cs1 the results were VDR inhibitor -19%.

The final 2 records of the section before open the next one:
Screening N#Cc1ccc(NC(=O)Cn2cnc(S(=O)(=O)N3CCc4ccccc43)c2)cc1 returned VDR inhibitor 15%.
For NC(=O)Cc1nc(-c2ccccc2)cs1 the results were VDR inhibitor -19%.
Screening CSc1nc(=S)n(-c2cc(C)ccc2C)c(C)c1C(C)=O returned VDR inhibitor -20%.
`COc1ccc(-c2csc(NC(=O)Cc3ccccc3F)n2)c(OC)c1` gave VDR inhibitor 8%.
`Cc1ccc(NC(=O)c2oc3ccccc3c2NC(=O)C2CCCO2)cc1C` (stereo not drawn) gave VDR inhibitor -6%.
For O=C(NCC(=O)N1CCN(C/C=C/c2ccccc2)CC1)c1ccc(OC(F)F)cc1 the results were VDR inhibitor 1%.
For O=C(O)/C=C/c1cn(-c2ccccc2)nc1-c1cccc([N+](=O)[O-])c1 the results were VDR inhibitor -4%.
`CC1(C)CC(NC(=O)C2CCC(=O)N(C3CC3)C2)CC(C)(C)C1` (stereo not drawn) gave VDR inhibitor -15%.
For Nc1ncc(Br)cc1S(=O)(=O)N1CCCCCC1 the results were VDR inhibitor 9%.
For Cc1csc(NC(=O)c2ccc3nc[nH]c3c2)n1 the results were VDR inhibitor 2%.
For O=C(Nc1ccc(Cl)c([N+](=O)[O-])c1)c1ccco1 the results were VDR inhibitor -3%.
CC1CN(CCOc2ccccc2-c2ccccc2)CC(C)O1 (stereo not drawn) was read as VDR inhibitor -8%.
O=C(CC(=O)Nc1ccccc1[N+](=O)[O-])Nc1ccccc1[N+](=O)[O-] was read as VDR inhibitor 4%.
`COc1ccc(NC(=O)CCCc2nc(-c3ccco3)no2)c(OC)c1` gave VDR inhibitor 11%.
Screening COc1cc(OC)cc(-c2nnc(Nc3nc4c(F)cccc4s3)o2)c1 returned VDR inhibitor 9%.
`COc1ccc(C(=O)CSc2nnc(NC(=O)C3CC(=O)N(c4cccc(OC)c4)C3)s2)cc1` (stereo not drawn) gave VDR inhibitor -1%.
For COc1ccccc1N(C(=O)c1ccco1)C(C(=O)NC1CCCCC1)c1cc(OC)c(OC)c(OC)c1 (stereo not drawn) the results were VDR inhibitor 8%.
Screening CCN(CC)CCN(C(=O)C1=COCCO1)c1nc2cc3c(cc2s1)OCO3 returned VDR inhibitor -19%.
`Cc1cccc(C2c3[nH]c4ccccc4c3CCN2C(=O)c2ocnc2C)n1` (stereo not drawn) gave VDR inhibitor 0%.
For CC1(C)C(=O)Nc2ccccc2N1C(=O)COC(=O)COc1cccc(C(F)(F)F)c1 the results were VDR inhibitor -11%.
Screening C=CCOc1ccc2cccc(/C=N/NC(=O)c3cc4cc([N+](=O)[O-])ccc4s3)c2c1 returned VDR inhibitor 12%.
Cc1ccc(SCc2nc(-c3ccc(C(=O)NCCc4ccc(Cl)cc4)cc3)oc2C)cc1 was read as VDR inhibitor 9%.
Screening CCOC(=O)N1CCC(NC(=O)CCC(=O)N2CC(C)Oc3ccc(Cl)cc32)CC1 (stereo not drawn) returned VDR inhibitor -7%.
Screening O=C(CCC1CCCN(Cc2ccncc2)C1)NCc1ccc(F)c(F)c1 (stereo not drawn) returned VDR inhibitor -19%.
`O=C(COc1ccc(Cl)cc1Br)NC1CC1` gave VDR inhibitor -7%.
N#Cc1ccccc1Cn1c(=O)n(CCCC(=O)NCc2ccccc2Cl)c(=O)c2ccccc21 was read as VDR inhibitor -6%.
`Cc1ccc(NC(=O)COc2ccccc2)c(NC(=O)c2ccccc2C)c1` gave VDR inhibitor -8%.
`Cc1cc(C)c(C#N)c(SCC(=O)Nc2c(C)n(C)n(-c3ccccc3)c2=O)n1` gave VDR inhibitor 9%.
Screening Cc1cc(C)c(C)c(S(=O)(=O)Nc2ccccc2N2CCOCC2)c1C returned VDR inhibitor 6%.
`Cc1cccc(C)c1NC(=S)NN1CCN(C)CC1` gave VDR inhibitor 17%.
Screening CC1=C(C(=O)Nc2ccccc2)C(c2ccc(O)cc2)n2nc(SCc3ccccc3)nc2N1 (stereo not drawn) returned VDR inhibitor -15%.
`Cc1cccc(-c2nc(CSc3nncn4c3cc3sccc34)c(C)o2)c1` gave VDR inhibitor 3%.
For COc1ccc(N2C(=O)/C(=C/c3ccc([N+](=O)[O-])cc3)C=C2c2ccccc2)cc1 the results were VDR inhibitor inconclusive.
COC(=O)c1ccc(Cn2c(SCc3ccc(F)cc3)nc3ccncc32)cc1 was read as VDR inhibitor -6%.
For COc1ccc(NC(=O)CNC(c2ccccc2)c2ccccc2)cc1Cl the results were VDR inhibitor 9%.
Cc1ccc2c(c1)N(CC(=O)NC(C)CCc1ccccc1)C(=O)c1cccnc1O2 (stereo not drawn) was read as VDR inhibitor 6%.
For CCN(CC)S(=O)(=O)c1ccc(O)c(C(=O)OCC(=O)Nc2cc(C)c(C)cc2[N+](=O)[O-])c1 the results were VDR inhibitor -6%.
`Cc1cc2ccccc2n1CCNC(=O)c1ccccc1F` gave VDR inhibitor -17%.
`COCCCN(Cc1ccco1)C(=O)Cn1ncc2c(=O)oc3ccc(C)cc3c21` gave VDR inhibitor 1%.
For COc1cc2c(cc1OC)CN(Cc1cccs1)CC2 the results were VDR inhibitor 2%.
O=C(NCc1cccnc1)C(=O)NCC1OCCN1S(=O)(=O)c1ccccc1 (stereo not drawn) was read as VDR inhibitor -18%.
Screening Cc1nc(N)[nH]c(=O)c1CCCNS(=O)(=O)c1ccc([N+](=O)[O-])cc1 returned VDR inhibitor -18%.
For CC1CCCCN1c1nc(-c2ccncc2)nc2ccccc12 (stereo not drawn) the results were VDR inhibitor -9%.
For Cn1c(COc2ccccc2)nnc1SCC(=O)Nc1ccc(N2CCOCC2)c(Cl)c1 the results were VDR inhibitor -11%.
For CCCOC(=O)/C(=C\C=C\c1ccccc1)NC(=O)c1ccccc1 the results were VDR inhibitor -6%.
For O=C(CN1CCN(CC(=O)Nc2ccccc2Cc2ccccc2)CC1)Nc1ccccc1Cl the results were VDR inhibitor -15%.
`Cc1ccc(S(=O)(=O)N/N=C\c2ccc3c(c2)OCO3)cc1` gave VDR inhibitor 3%.
`Cc1cc(N2CCN(C)CC2)nc2ccc(NC(=O)c3ccc(Br)o3)cc12` gave VDR inhibitor -11%.
For Cc1ccc(C)c(S(=O)(=O)NC2CCSC2=O)c1 (stereo not drawn) the results were VDR inhibitor -14%.
Cc1ccc(C)c(S(=O)(=O)N2CCN(C(=O)Cn3c(C(F)(F)F)nc4ccccc43)CC2)c1 was read as VDR inhibitor 0%.
Screening O=C(CNC(=O)c1ccccc1)NCC(c1ccco1)N1CCCC1 (stereo not drawn) returned VDR inhibitor -8%.
Nc1cc(S(=O)(=O)O)cc2ccc(S(=O)(=O)O)cc12 was read as VDR inhibitor 5%.
Cc1cccc(-n2c(=O)c3c4c(sc3n3cnnc23)CCCC4)c1 was read as VDR inhibitor -10%.
Screening O=C(NCc1ccc2c(c1)OCO2)c1ccc(N2C(=O)C3CCCCC3C2=O)cc1 (stereo not drawn) returned VDR inhibitor -5%.
`O=C(NC(=S)NCCc1ccccn1)c1ccco1` gave VDR inhibitor 0%.
For Cn1cc(S(=O)(=O)c2ccc(Cl)cc2)c(=O)c2cc(F)c(N3CCCCCC3)cc21 the results were VDR inhibitor 25%.
Screening CC(=O)N(c1ccccc1Cl)S(=O)(=O)c1ccc(Cl)cc1 returned VDR inhibitor -16%.
For CCOCC(=O)Nc1c(C(=O)Nc2ccc(OC)cc2OC)oc2ccccc12 the results were VDR inhibitor 9%.
`COc1ccc(C(CCN2CCOCC2)c2c(OC)cc(OC)c3ccc(=O)oc23)cc1` (stereo not drawn) gave VDR inhibitor 6%.
For CS(=O)(=O)N(CC(=O)N1CCC(C(N)=O)CC1)c1ccc(Cl)c(C(F)(F)F)c1 the results were VDR inhibitor 8%.
CCCN1C(=O)c2cccc3c(N4CCCCC4)ccc(c23)C1=O was read as VDR inhibitor -12%.
For COc1cc(CNn2c(C)n[nH]c2=S)cc(Cl)c1OCc1ccc(F)cc1 the results were VDR inhibitor -8%.

Next part (4 carried over from the part before).
`COc1ccc(C(CCN2CCOCC2)c2c(OC)cc(OC)c3ccc(=O)oc23)cc1` (stereo not drawn) gave VDR inhibitor 6%.
For CS(=O)(=O)N(CC(=O)N1CCC(C(N)=O)CC1)c1ccc(Cl)c(C(F)(F)F)c1 the results were VDR inhibitor 8%.
CCCN1C(=O)c2cccc3c(N4CCCCC4)ccc(c23)C1=O was read as VDR inhibitor -12%.
For COc1cc(CNn2c(C)n[nH]c2=S)cc(Cl)c1OCc1ccc(F)cc1 the results were VDR inhibitor -8%.
`Cc1cccc(C)c1NC(=O)C1CCCN(CCCc2ccccc2)C1` (stereo not drawn) gave VDR inhibitor -6%.
For O=C(O)CSc1nnc(Cc2ccccc2)n1Cc1ccccc1 the results were VDR inhibitor -1%.
CC1CC(=O)Nc2ccccc2N1C(=O)Cn1cnc2ccccc2c1=O (stereo not drawn) was read as VDR inhibitor -16%.
For CC[C@]12c3[nH]c4ccc(Cl)cc4c3CCN1C(=O)[C@@H](CC(=O)NCC13CC4CC(CC(C4)C1)C3)C[C@@H]2C(=O)N1CCN(C(=O)c2ccco2)CC1 the results were VDR inhibitor -11%.
Screening CCc1ccc(NC(=O)CSc2nc(=O)n(Cc3cccnc3)c3c2CCC3)cc1 returned VDR inhibitor -2%.
`Cc1[nH]c(=O)c(C(=O)/C=C/c2ccccc2)c2c1CCCC2` gave VDR inhibitor -24%.
N#CCCCc1cc2cc(F)ccc2cn1 was read as VDR inhibitor -20%.
For CSCCC(NC(=O)COc1ccccc1)C(=O)N1CCOCC1 (stereo not drawn) the results were VDR inhibitor 6%.
`COc1ccccc1NC(=O)Cn1c(=O)n(-c2ccc(C)cc2)c(=O)c2c1cnn2C` gave VDR inhibitor -10%.
For CCc1cccc(CC)c1N(COC)C(=O)Cn1c(C(C)O)nc2ccccc21 (stereo not drawn) the results were VDR inhibitor -4%.
NC(=O)c1cc([N+](=O)[O-])ccc1Nc1ccccc1 was read as VDR inhibitor 7%.
Screening Cn1c(SCC(=O)NCc2ccco2)nnc1-c1ccccc1 returned VDR inhibitor 3%.
`Cc1cccc(Cn2cccc2CNS(=O)(=O)c2ccc(C)c(C)c2)c1` gave VDR inhibitor 14%.
Screening COc1ccc(C(=O)Nc2ccc(Cl)c(Cl)c2)c(OC)n1 returned VDR inhibitor 23%.
Screening CCOC(CC(=O)NNC(=O)c1c(-c2ccccc2Cl)noc1C)OCC returned VDR inhibitor -1%.

Reprinted from the part before: 2 entries; new compounds follow.
Screening COc1ccc(C(=O)Nc2ccc(Cl)c(Cl)c2)c(OC)n1 returned VDR inhibitor 23%.
Screening CCOC(CC(=O)NNC(=O)c1c(-c2ccccc2Cl)noc1C)OCC returned VDR inhibitor -1%.
`O=S(=O)(c1ccccc1)N1CCC2(CC1)OCCN2S(=O)(=O)c1cccs1` gave VDR inhibitor 7%.
Screening CC1Cc2ccccc2N1S(=O)(=O)c1cccc(C(=O)c2nccn2C)c1 (stereo not drawn) returned VDR inhibitor -6%.
`Clc1cccc2sc(-c3nnc(-c4ccccc4)o3)c(Cl)c12` gave VDR inhibitor -14%.
O=S(=O)(Nc1cc2nc3ccccc3nc2n1Cc1ccccc1)c1ccc(Cl)cc1 was read as VDR inhibitor 40µM*.
`COC(=O)c1ccc(CN2CCC(Oc3cccc(C(=O)N4CCCC4)c3)CC2)cc1` gave VDR inhibitor -8%.
Cc1cccc(-c2nnc(SCc3cc(=O)c4cccc(Cl)c4[nH]3)n2C)c1 was read as VDR inhibitor 5%.
`COc1ccc(CCNC(=S)Nc2ccccc2)cc1` gave VDR inhibitor -4%.
For CC1CCCN(S(=O)(=O)c2ccc(NC(=O)Cc3ccc(S(=O)(=O)N4CCOCC4)s3)cc2)C1 (stereo not drawn) the results were VDR inhibitor 16%.
`Cc1cc(N2CCC(C(=O)Nc3ccc(F)cc3)CC2)nc(-c2ccccc2)n1` gave VDR inhibitor 8%.
Screening COCCCNC(=O)c1ccccc1SC returned VDR inhibitor -1%.
For COCCC(=O)N1CCC(Oc2ccc(C(=O)N(C)Cc3cc(C)no3)cc2)CC1 the results were VDR inhibitor -3%.
Cc1ccc(NC(=O)c2cc(S(=O)(=O)N3CCC4(CC3)OCCO4)ccc2F)cc1 was read as VDR inhibitor 3%.
Cn1c(=O)cc(OCCCC(=O)Nc2cccnc2)c2ccccc21 was read as VDR inhibitor 4%.
`O=C(O)CNC(=O)c1ccc(Oc2c(F)c(F)c(Oc3ccc(C(=O)NCC(=O)O)cc3)c(F)c2F)cc1` gave VDR inhibitor 3%.

Bioassay records (PubChem BioAssay)
